# rRNA inh HTS = selective bacterial rRNA inhibition in E. coli; E. coli WT GFP vs humanized-ribosome RFP mutants, fluorescence, 24 h; stronger effect = lower value; DMSO median 0, no signal -100; GFP signal change (wild-type ribosome), % (no concentration beside the values); 350,000 tested, 1.6% active; AID 720706;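 active = significant combined selectivity score with lowered wild-type GFP, culture density cut under 30%, mutant RFP and density less affected; inactive = any of these conditions unmet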; also: one replicate is shown; some compounds called inactive have numbers as strong as hits
# UCH37 DUB inh = human UCH37 deubiquitinating enzyme inhibition | AID 588478 | Q9Y5K5 | purified proteasome/UCH37, Ub-AMC cleavage fluorescence | 330,000 tested, 0.33% active | inhibition, % (test concentration not listed);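 active = mean of two replicates above 20%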;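 also: 0% = compound-free wells with enzyme and 100% = wells lacking proteasome; stock transfer was 100 nL into about 20 µL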
# Target sequence (Q9Y5K5 whole entry, looked up): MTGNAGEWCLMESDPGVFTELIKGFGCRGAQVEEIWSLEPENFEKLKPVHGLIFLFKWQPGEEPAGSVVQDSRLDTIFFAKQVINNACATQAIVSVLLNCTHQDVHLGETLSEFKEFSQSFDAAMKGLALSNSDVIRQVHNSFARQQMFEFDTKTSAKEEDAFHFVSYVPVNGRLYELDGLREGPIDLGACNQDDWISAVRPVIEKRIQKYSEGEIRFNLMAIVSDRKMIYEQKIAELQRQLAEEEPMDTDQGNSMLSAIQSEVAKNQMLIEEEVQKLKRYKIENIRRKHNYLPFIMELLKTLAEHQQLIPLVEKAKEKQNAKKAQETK
#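 Reagent: Ub-AMC substrate; assay system: Proteasome-associated human UCH37 deubiquitinase; controls: no-proteasome and no-compound wells; read-out: % inhibition of Ub-AMC cleavage fluorescence; timing: 30 min preincubation with enzyme, 25 min cleavage at room temperature; signal: AMC fluorescence from Ub-AMC cleavage, excitation 355 nm, emission 460 nm; buffer or medium: Tris-HCl pH 7.4 plus ovalbumin, ATP-MgCl2, DTT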
# ALR H2O2 inh = human ALR oxidase inhibition via reduced H2O2 | purified ALR, DTT oxidation, H2O2 HRP-luminol luminescence | inhibition, % (concentration not given with the values) | 290,000 tested, 3.8% active;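 active = mean and each replicate at 75% or more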;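 also: stock transfer was 7.5 nL into about 7.5 µL; 0% = neutral wells and 100% = wells with inactivated enzyme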
# B2AR ag = activates human beta-2 adrenergic receptor causing internalization; P07550; Am2.2-beta2AR cells, FAP receptor internalization, flow cytometry; reference of the scale not given here; response, % (no concentration beside the values); 340,000 tested, 0.43% active;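 active = response above a set limit, near 3 SD of response in nonfluorescent compounds, cut at about 42% in these data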;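 also: stock transfer was 100 nL into about 11 µL; a reference agonist was the positive control; negative values mostly stem from fluorescent compounds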
# Ecoli growth = E. coli growth inhibition; Escherichia coli growth, OD600, 23 h; stronger effect = lower value; OD600 absorbance (concentration not given with the values); 330,000 tested, 0.21% active;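 active = OD600 absorbance below the run mean of sample wells minus 3.6 SD, in any replicate, cut at about 0.56 in these data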;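 also: stock transfer was 300 nL into about 60 µL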
# HNF4A DNA FP = change in binding of human HNF4 alpha to DNA. 360,000 tested, 0.3% active. activity change, % at 10 µM. HNF4a-FITC DNA binding, fluorescence polarization, 1 h; in the data active = activity change above about 30%, passing the limit was not always enough;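 also: controls were the assay level and a saturating level of protein; the project sought stronger binding though the title names inhibitors; some compounds called inactive have numbers as strong as hits; positive values seem to mean higher polarization but the record does not say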
# Target sequence (P41235 whole entry, looked up): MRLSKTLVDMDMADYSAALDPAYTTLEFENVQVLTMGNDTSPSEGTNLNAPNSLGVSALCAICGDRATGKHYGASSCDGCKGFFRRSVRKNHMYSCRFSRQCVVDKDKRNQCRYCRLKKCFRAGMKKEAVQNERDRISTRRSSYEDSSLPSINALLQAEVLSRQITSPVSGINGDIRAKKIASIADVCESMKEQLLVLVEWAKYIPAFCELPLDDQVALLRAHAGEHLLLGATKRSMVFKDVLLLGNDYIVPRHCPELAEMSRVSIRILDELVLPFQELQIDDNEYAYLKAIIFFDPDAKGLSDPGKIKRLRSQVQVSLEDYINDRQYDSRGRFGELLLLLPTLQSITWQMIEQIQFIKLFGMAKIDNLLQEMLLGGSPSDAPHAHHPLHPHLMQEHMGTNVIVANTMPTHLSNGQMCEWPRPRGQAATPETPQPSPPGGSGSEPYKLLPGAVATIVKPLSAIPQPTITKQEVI
# FGF22 binding = binders of recombinant human FGF22 by thermal shift. Q9HCT0. SYPRO orange fluorescence; percent of sucrose octasulfate shift, DMSO zero. calls only at 9.99 µM. 340,000 tested, 1.5% active. AID 651658;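 active = melting point raised past a set limit in the mean and every replicate; three in four hits are not shown here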
# Target sequence (Q9HCT0 whole entry, looked up): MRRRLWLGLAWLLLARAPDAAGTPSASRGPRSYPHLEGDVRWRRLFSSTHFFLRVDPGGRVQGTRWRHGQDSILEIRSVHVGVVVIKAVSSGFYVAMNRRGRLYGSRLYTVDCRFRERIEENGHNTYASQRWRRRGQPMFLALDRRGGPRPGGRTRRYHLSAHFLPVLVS
# rRNA inh HTS OD600 = recorded beside rRNA inh HTS, whose call it bears; OD600 change, %; measured here: OD600 growth;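 optical density of the mix in the first replicate; 0 = DMSO median and -100 = no signal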
# rRNA inh HTS RFP = also measured in rRNA inh HTS; calls as there; RFP signal change, %; measured here: RFP humanized mutant strains;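 first replicate; 0 = DMSO median and -100 = no signal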
# Starred values were filed as active, the others as inactive; i = inactive; x = not tested or not shown. The list is partial (hit frequency here may not be typical).
item	canonical_smiles	rRNA inh HTS	rRNA inh HTS OD600	rRNA inh HTS RFP	UCH37 DUB inh	ALR H2O2 inh	B2AR ag	Ecoli growth	HNF4A DNA FP	FGF22 binding
1	CC(=O)c1ccc(NC(=O)c2ccc(CNc3c(N4CCCC4)c(=O)c3=O)cc2)cc1	4	-3	-1.7	3.0	6	8	0.7	0.7	i
2	Cc1ccc(NC(=O)c2oc3ccc(Br)cc3c2C)cc1S(=O)(=O)N1CCOCC1	6	9	0.4	-2.9	x	10	0.7	0.2	i
3	COc1ccccc1CNC(=O)COC(=O)Cc1cccs1	11	0	-2.1	1.4	13	1	0.71	4.3	i
4	N=c1n(CCN2CCCCC2)c2ccccc2n1CC(O)c1ccco1 (stereo not drawn)	9	15	52	3.7	-29	-9	0.71	0.9	i
5	COc1ccc(OCC(O)CNC(=O)c2ccccc2C(=O)O)cc1 (stereo not drawn)	x	x	x	-1.6	-4	15	0.68	-0.6	x
6	CCCC(=O)Nc1c(-c2cccc(OC)c2)c(=O)c2ccccc2n1C	9	7	-2.3	-6.3	-6	-9	0.64	0.5	i
7	C/C(CC(=O)N1CCN(C=O)CC1)=N\NC(=O)c1cc2ccccc2cc1O	x	x	x	x	-46	4	x	-0.5	x
8	Oc1ccc(Br)cc1CNn1cnnc1	x	x	x	6.4	4	0	0.7	1.2	x
9	CC(C)(C)OC(=O)NCCCC[C@H](NC(=O)c1nc[nH]c1C(=O)N1CCN(C(=O)OC(C)(C)C)CC1)C(=O)OC(C)(C)C	7	7	8.5	-1.5	1	6	x	-0.6	i
10	O=C(O)c1ccccc1SC1CC(=O)N(c2ccccc2)C1=O (stereo not drawn)	x	x	x	0.8	6	9	0.68	-4.6	x
11	CCN(CC)C(=O)N1CCN(C)CC1	13	8	0.1	2.0	x	3	0.73	4.7	i
12	COc1ccccc1CNCc1ccc(C)cc1	14	2	2.0	1.7	1	0	0.69	2.7	i
13	COC(=O)COc1ccc(S(=O)(=O)N2CCN(c3ccc(OC)cc3)CC2)cc1	15	14	1.6	-4.1	6	9	0.65	-0.8	x
14	N#C/C(=C/c1cccs1)c1nc2ccccc2[nH]1	x	x	x	-21	-2	-7	0.68	-1.0	x
15	c1ccc(CCSc2ncnc3nc[nH]c23)cc1	-11	-18	-2.5	4.2	-16	-2	0.67	0.2	i
16	O=C(Oc1ccc(C(=S)N2CCOCC2)cc1)c1ccccc1	12	7	0.3	4.7	-2	0	0.72	1.4	i
17	O=C(Cc1c(F)cccc1Cl)NNC(=S)Nc1ccc(S(=O)(=O)Nc2ncccn2)cc1	19	13	1.0	7.0	70	15	0.67	1.4	i
18	O=C(CSc1nccn(-c2ccc(Br)cc2)c1=O)Nc1ccccc1F	-3	-3	-4.7	-1.9	x	5	0.69	-1.2	i
19	CCCCC12CN3CCN(CC(C3)/C1=N\NC(=O)Nc1ccccc1)C2	x	x	x	x	-14	0	x	3.5	x
20	CC1CCc2sc(C(=O)OCC(=O)NCc3ccccc3)cc2C1 (stereo not drawn)	x	x	x	2.8	0	1	0.71	-2.5	x
21	COc1ccc2cc(CO)n(C)c2c1	8	7	-2.0	-1.4	8	4	x	-0.5	i
22	COc1cc(NC(=O)CCc2nc(-c3cccs3)no2)cc(OC)c1OC	x	x	x	4.3	x	5	0.68	6.1	x
23	COc1ccccc1Oc1ccc(S(=O)(=O)Nc2cccnc2)cc1	x	x	x	3.8	-2	-5	0.76	0.1	x
24	Cc1nc2ccccc2n1CC(=O)c1ccc(O)c(O)c1	-8	-1	-4.5	1.5	98*	1	0.7	-3.9	i
25	O=C(N/N=C/c1cc(Cl)ccc1O)c1ccc(Br)cc1	x	x	x	x	-7	-7	x	-2.3	x
26	CCOc1ccc(CN(C)CC(=O)NCc2ccc(F)cc2)cc1	-1	5	0.0	3.0	-1	-2	0.68	0.0	i
27	COC(=O)C(NC(C)=O)(Nc1cccc(C)n1)C(F)(F)F (stereo not drawn)	0	2	1.4	1.6	-1	7	0.69	5.6	i
28	CC1CCN(c2ccc(/C=N\Nc3nncn3N)cc2[N+](=O)[O-])CC1	x	x	x	x	-30	-11	x	-3.6	x
29	CCNC(=S)N/N=C/c1cc(C)ccc1C	3	1	0.0	x	48	-16	x	0.2	i
30	COC(=O)Cc1c(C)nc(SCc2ccccc2)[nH]c1=O	11	3	-2.4	7.0	-6	7	0.67	-3.0	i

# Reprinted at random: 2 compounds from above.
item	canonical_smiles	rRNA inh HTS	rRNA inh HTS OD600	rRNA inh HTS RFP	UCH37 DUB inh	ALR H2O2 inh	B2AR ag	Ecoli growth	HNF4A DNA FP	FGF22 binding
27	COC(=O)C(NC(C)=O)(Nc1cccc(C)n1)C(F)(F)F (stereo not drawn)	0	2	1.4	1.6	-1	7	0.69	5.6	i
1	CC(=O)c1ccc(NC(=O)c2ccc(CNc3c(N4CCCC4)c(=O)c3=O)cc2)cc1	4	-3	-1.7	3.0	6	8	0.7	0.7	i

# (next part)
item	canonical_smiles	rRNA inh HTS	rRNA inh HTS OD600	rRNA inh HTS RFP	UCH37 DUB inh	ALR H2O2 inh	B2AR ag	Ecoli growth	HNF4A DNA FP	FGF22 binding
31	CN(Cc1ccc(Cl)c(Cl)c1)C(=O)c1ccccc1SCC(=O)N1CCCC1	-19	-18	-3.0	-0.5	x	4	0.62	-2.2	i
32	O=C(NC1CCCCC1)C1CCN(S(=O)(=O)N2CCCCCC2)CC1	x	x	x	4.5	-8	-4	0.74	1.0	x
33	c1ccc(-n2ncc3c(N4CCN(c5ccccn5)CC4)nc(N4CCCCCC4)nc32)cc1	x	x	x	3.4	-5	-12	0.74	-2.9	x
34	CCOC(=O)c1c(C)[nH]c(C(=O)OCC(=O)N(C)C2CCS(=O)(=O)C2)c1C (stereo not drawn)	x	x	x	-1.6	-6	-2	0.72	-2.4	x
35	CC(C)(C)NS(=O)(=O)c1ccc2[nH]c3c(c2c1)CCCCC3	-58	-79	-15	0.0	14	23	0.67	-0.4	i
36	COc1ccc(NC(=S)c2ccc(N(C)C)cc2)cc1	x	x	x	2.8	6	-7	0.68	0.9	x
37	COc1cc2c(NCCCCCO)ncnc2c(OC)c1OC	-1	-4	-1.8	x	x	x	x	5.5	i
38	COC(=O)CN(n1cnnc1)S(=O)(=O)c1ccccc1	x	x	x	1.6	-3	1	0.64	-2.3	x
39	CCc1ccc(OCC(=O)NC(C)(C)C)cc1	x	x	x	3.4	-33	14	0.69	1.5	x
40	NCCCCCC(=O)N/N=C/c1ccc2nccnc2c1	-2	7	-0.2	x	1	1	x	-1.9	i
41	CCNC(=O)C1(C)CCN(Cc2ccc(-c3ccccc3)cc2)C1 (stereo not drawn)	1	1	-1.6	x	x	x	x	0.0	i
42	NS(=O)(=O)c1ccc(NC(=O)Nc2ccc(C(F)(F)F)cc2)cc1	-1	4	-0.2	6.0	-14	5	0.66	1.6	i
43	CC1(C)CC(=O)C2=C(C1)OC(N)=C(C#N)C2c1cc2c(cc1[N+](=O)[O-])OCO2 (stereo not drawn)	10	-17	-4.8	-7.4	-8	7	0.66	-97	i
44	COc1ccc2oc(C(=O)NCC(Cc3ccccc3)N(C)C)c(C)c2c1 (stereo not drawn)	1	-7	3.3	-18	-6	-2	0.67	1.1	i
45	COc1cc2cc(CN(Cc3cccnc3)C(=O)NCc3ccccc3)c(=O)[nH]c2cc1OC	x	x	x	-24	x	1	0.75	-0.2	x
46	O=C(NCc1cn2ccccc2n1)c1ccccc1	x	x	x	2.8	5	-3	0.72	4.4	x
47	O=C(Nc1ccc(Br)cc1Cl)NC1CC1	-8	-1	-1.5	1.4	-9	3	0.63	0.4	i
48	O=C(Cn1c2ccccc2c2nc3n(c(=O)c21)CCCS3)Nc1ccccc1	7	4	-0.3	-4.9	-3	-22	0.69	-0.1	i
49	COc1ccc(N(CC(=O)Nc2cc(Cl)ccc2OC)S(=O)(=O)c2c(C)noc2C)cc1	x	x	x	4.0	x	-8	0.76	0.7	x
50	O=C1NC[C@H](CCCCN2CCN(CC3CCCCC3)C(=O)C2=O)N(CCC2CCCCC2)C1=O	-7	-9	7.2	x	x	x	x	1.1	i
51	Cc1noc(C)c1COc1ccccc1C(=O)N(C)CC(=O)Nc1ccc(F)c(F)c1F	-2	2	-4.1	3.2	x	2	0.66	-3.5	i
52	CC(=O)N1CCN(c2ccc(S(=O)(=O)NCCN(C(C)C)C(C)C)cc2[N+](=O)[O-])CC1	x	x	x	7.2	x	6	0.69	-1.0	x
53	CCC(C)CCN1C(N(C)C)=NC[C@@H]1C (stereo partly drawn)	16	3	2.0	1.2	7	2	x	-1.4	i
54	O=S(=O)(c1cnc[nH]1)N1CCN(c2ccccc2)CC1	-1	12	-2.5	0.0	x	-3	0.67	-0.5	i
55	Cc1ccc(CS(=O)(=O)CCC(=O)NCC2CCCO2)cc1 (stereo not drawn)	x	x	x	-1.9	-6	-1	0.67	-2.2	x
56	O=C(CCNC(=O)c1ccc(Cl)cc1)NC1CCCc2ccccc21 (stereo not drawn)	9	7	-2.0	2.9	-7	5	0.65	2.5	i
57	Oc1ccc(-c2nccc(-c3ccc(Cl)cc3)n2)cc1	2	7	2.3	1.4	1	-11	0.71	11	i
58	Cc1ccc(NC(=O)C2CC(=O)n3ncnc3N2)cc1C (stereo not drawn)	-1	10	-3.5	0.6	-9	4	0.67	-0.9	i
59	O=C(O)c1ccccc1C(=O)c1ccc(N2CCCC2)c([N+](=O)[O-])c1	-4	1	-11	17	3	-1	0.62	0.7	x
60	C/C=C(\C)C(=O)NCCN1C2=NC[C@H](Cc3ccccc3)N2C[C@H]1Cc1ccc(O)cc1	x	x	x	0.3	2	-10	x	4.8	x
61	CCCCN(CC)C(=O)c1ccc(-c2ccccc2)cc1	x	x	x	3.5	-13	-5	0.7	-2.5	i
62	Clc1ccc(CSc2nncn2-c2ccc3c(c2)OCCO3)cc1	-30	-50	-3.1	x	-6	6	x	1.7	i
63	Cc1cc(C)c(C#N)c(SC2CCCCC2=O)n1 (stereo not drawn)	11	2	1.2	2.0	5	4	0.73	-0.3	i
64	Cc1csc(NC(=O)c2cc([N+](=O)[O-])cc([N+](=O)[O-])c2)n1	3	10	-0.4	3.7	-61	3	0.66	4.1	i
65	O=C(CN1C(=O)NC2(CCOc3ccccc32)C1=O)Nc1ccc(F)c(F)c1F (stereo not drawn)	-7	-7	-3.8	3.5	24	3	0.75	1.3	i
66	COc1c(Cl)cc(Cl)cc1C(=O)n1nc(C)cc1C	x	x	x	-0.4	2	-3	0.79	-0.5	x
67	Cc1cccc(C)c1NC(=O)C(NC=O)c1ccc(Cl)cc1 (stereo not drawn)	x	x	x	0.2	-2	0	0.74	-1.2	x
68	N#Cc1nc(Cc2ccccc2)oc1N1CCC(C(N)=O)CC1	x	x	x	-0.8	0	-4	0.73	0.3	x
69	CC(C)(C)c1ccc(C(=O)N/C(N)=N/c2nc3ccccc3o2)cc1	x	x	x	3.1	11	1	0.79	1.3	x
70	CC(=O)Nc1cc(-c2ccc(S(C)(=O)=O)cc2)cn2c(-c3ccc(F)c(Cl)c3)cnc12	-2	10	3.6	x	x	x	x	-2.4	i
71	Cc1ccc(S(=O)(=O)c2nc(-c3cccs3)oc2N2CCC(C(N)=O)CC2)cc1	-9	8	-2.8	0.9	x	-6	0.71	-2.9	i
72	COC(=O)COc1ccc(S(=O)(=O)N2CCN(c3ccccc3F)CC2)cc1	x	x	x	7.0	x	31	0.68	1.9	x
73	O=S(=O)(Nc1ccccc1)c1ccc(NS(=O)(=O)c2cccs2)cc1	-7	-12	-5.0	-0.1	5	3	0.69	-0.9	i
74	O=C(O)CC1(CC(=O)Nc2ccc3c(c2)OCCCO3)CCCCC1	-17	8	1.7	2.2	-4	2	0.66	0.4	i
75	CC1CN(C(c2ccco2)c2sc3ncnn3c2O)CC(C)O1 (stereo not drawn)	7	12	-2.0	0.5	-6	-5	0.79	-1.1	i

# Assay outcomes: PubChem BioAssay, several laboratories
